Screening results deposited in PubChem by several laboratories.
HNF4A DNA FP – change in binding of human HNF4 alpha to DNA. P41235. HNF4a-FITC DNA binding, fluorescence polarization, 1 h. activity change, % at 10 µM. hit rate 0.3% among 360,000. AID 1224865; in the data active means activity change above about 30%, passing the limit was not always enough;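 further: controls were the assay level and a saturating level of protein; the project sought stronger binding though the title names inhibitors; some compounds called inactive have numbers as strong as hits; positive values seem to mean higher polarization but the record does not say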
Target sequence (P41235 whole entry, looked up): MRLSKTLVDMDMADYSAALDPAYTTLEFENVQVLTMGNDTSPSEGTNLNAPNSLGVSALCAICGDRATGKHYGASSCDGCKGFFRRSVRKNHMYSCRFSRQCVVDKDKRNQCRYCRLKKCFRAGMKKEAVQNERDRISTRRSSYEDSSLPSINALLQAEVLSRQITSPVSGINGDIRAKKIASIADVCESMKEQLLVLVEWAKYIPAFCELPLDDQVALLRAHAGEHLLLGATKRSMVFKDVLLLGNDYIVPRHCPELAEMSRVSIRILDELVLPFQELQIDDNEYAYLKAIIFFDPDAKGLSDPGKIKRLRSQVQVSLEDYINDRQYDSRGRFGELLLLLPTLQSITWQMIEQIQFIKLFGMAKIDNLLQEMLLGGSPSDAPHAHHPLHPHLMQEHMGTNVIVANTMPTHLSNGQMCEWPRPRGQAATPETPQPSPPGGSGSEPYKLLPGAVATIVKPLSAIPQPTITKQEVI
Ecoli growth – blocks Escherichia coli growth | OD600, 23 h; active compounds read low | hit rate 0.21% among 330,000 | OD600 absorbance (no concentration beside the values);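 active means OD600 absorbance below the run mean of sample wells minus 3.6 SD, in any replicate, cut at about 0.56 in these data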;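 further: stock transfer was 300 nL into about 60 µL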
LANA-H2A inh – blocks KSHV LANA binding to histone H2A/H2B. Q9QR71. cell-free LANA-H2A/H2B peptide, fluorescence polarization. hit rate 0.6% among 320,000. inhibition, % (no concentration beside the values); in the data active means inhibition mostly above about 10%, no sharp cut-off; inactive means mostly below about 6.7%;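 further: stock transfer was 7.5 nL into about 10 µL; 0% = median of vehicle wells and 100% = median of positive control wells; one replicate is shown; the record names a cut of 25% in any replicate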
UCH37 DUB inh – inhibitors of human deubiquitinating enzyme UCH37 | Q9Y5K5 | purified proteasome/UCH37, Ub-AMC cleavage fluorescence | inhibition, % (test concentration not listed) | hit rate 0.33% among 330,000;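 active means mean of two replicates above 20%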;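 further: 0% = compound-free wells with enzyme and 100% = wells lacking proteasome; stock transfer was 100 nL into about 20 µL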
Target sequence (Q9Y5K5 whole entry, looked up): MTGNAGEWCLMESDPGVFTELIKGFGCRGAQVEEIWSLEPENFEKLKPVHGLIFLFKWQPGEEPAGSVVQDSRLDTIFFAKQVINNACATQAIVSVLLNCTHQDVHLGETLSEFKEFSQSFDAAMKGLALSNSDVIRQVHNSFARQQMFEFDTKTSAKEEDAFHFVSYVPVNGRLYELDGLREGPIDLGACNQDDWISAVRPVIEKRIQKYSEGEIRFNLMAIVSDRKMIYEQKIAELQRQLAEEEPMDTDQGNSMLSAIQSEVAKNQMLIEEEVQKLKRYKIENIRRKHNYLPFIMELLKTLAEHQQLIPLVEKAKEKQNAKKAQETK
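Material: human UCH37 enzyme supplied as purified proteasome complex. Measure: % inhibition of Ub-AMC cleavage fluorescence. Medium: pH 7.4 Tris-HCl (50 mM) with ovalbumin, ATP-MgCl2, DTT. Times: 30 min preincubation with enzyme, 25 min cleavage at room temperature. Detection: AMC fluorescence intensity at 355/460 nm.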
Vif TR-FRET – HIV-1 Vif–A3G interaction blockers – biochemical, TR-FRET, GST-Vif 1-94, biotin-A3G peptide, dose response retest, primary screen (AID 1117319); TR-FRET GST-Vif / biotin-A3G peptide binding; higher % means a stronger effect; test concentration not given here; strong numbers were not always called active; inhibition, %; hits with a dose series show IC50 in µM; hit rate 0.57% among 260,000;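 active means above the screen mean plus three standard deviations and confirmed in dose response; inconclusive means results disagree or hit not tested in dose response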;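 further: Vif residues 1-94 fused to GST binding biotinylated APOBEC3G peptide 110-148; 0% = full assay without inhibitor and 100% = GST in place of GST-Vif; retest series ran down from 100 µM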
B2AR ag – agonists of human beta-2 adrenergic receptor inducing internalization; Am2.2-beta2AR cells, FAP receptor internalization, flow cytometry; reference of the scale not given here; P07550; hit rate 0.43% among 340,000; response, % (test concentration not listed);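 active means response above a set limit, near 3 SD of response in nonfluorescent compounds, cut at about 42% in these data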;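 further: stock transfer was 100 nL into about 11 µL; a reference agonist was the positive control; negative values mostly stem from fluorescent compounds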
A1 inh – inhibitors of the anti-apoptotic protein A1, read as caspase activation. AID 2462. hit rate 0.066% among 330,000. caspase activation, % (test concentration not listed). MEF A1-2A-BIM cells, Caspase-Glo 3/7 luminescence, 3 h; percent of clofoctol response, vehicle zero;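 active means over half of replicate activation scores above 10%, or exactly half above 10 with the replicate mean above 10; inconclusive means replicate mean below 10 yet half the replicates above 10; inactive means over half of replicates below 10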;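 further: wells of about 30 µL received 50 nL stock; many hits fall short of the cut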
* hit, by the source's call.

COC(=O)c1ccc(NC(=O)CCc2nnc3ccc(N4CCC5(CC4)OCCO5)nn23)cc1 was read as HNF4A DNA FP -3.0, Ecoli growth 0.68, LANA-H2A inh 0.7, UCH37 DUB inh 1.0, B2AR ag 1 and A1 inh -0.7.
COC(=O)c1cccc(N(C(=O)CNC(=O)c2ccco2)C(C(=O)NC2CCCC2)c2ccco2)c1 (stereo not drawn) was read as HNF4A DNA FP 0.3, Ecoli growth 0.74, LANA-H2A inh -7.8, UCH37 DUB inh 4.3, Vif TR-FRET 18%, B2AR ag 11 and A1 inh 0.7.
COc1ccc(C(=O)N(C)Cc2cnn(Cc3ccccc3)c2)cc1S(=O)(=O)N1CCOCC1 was read as HNF4A DNA FP -0.5, Ecoli growth 0.7, LANA-H2A inh 1.4, UCH37 DUB inh -2.1, Vif TR-FRET -8%, B2AR ag 19 and A1 inh -0.4.
Screening CC(C)N(Cc1nc2ccccc2[nH]1)C(C)C returned HNF4A DNA FP 0.1, Ecoli growth 0.77, LANA-H2A inh -0.6, UCH37 DUB inh 2.8, Vif TR-FRET inconclusive, B2AR ag -1 and A1 inh -0.6.
For Cc1cc(C)c(N2C(=O)CCCC2=O)c(Cl)c1 the results were HNF4A DNA FP -1.9, Ecoli growth 0.71, LANA-H2A inh -2.3, UCH37 DUB inh -1.2, Vif TR-FRET 3%, B2AR ag -8 and A1 inh -1.1.
For COc1ccc2[nH]c(=O)c(CN(CCO)C(=O)c3cccs3)cc2c1 the results were HNF4A DNA FP -0.2, Ecoli growth 0.65, LANA-H2A inh -2.3, UCH37 DUB inh -101, Vif TR-FRET inconclusive, B2AR ag 4 and A1 inh 0.2.
Cc1cc(Cl)ccc1NC(=O)C1COc2ccccc2O1 (stereo not drawn) was read as HNF4A DNA FP -2.2, Ecoli growth 0.66, LANA-H2A inh -0.9, UCH37 DUB inh 0.6, Vif TR-FRET 2%, B2AR ag 12 and A1 inh 0.0.
For NC(=O)c1ccc(C23CC4CC(CC(C4)C2)C3)o1 the results were HNF4A DNA FP 1.2, LANA-H2A inh 2.6, B2AR ag -8 and A1 inh 0.7.
Screening CCN(CC)S(=O)(=O)c1ccc2c(c1)c(C(=O)O)cn2C returned HNF4A DNA FP 0.9, Ecoli growth 0.69, LANA-H2A inh -4.5, UCH37 DUB inh 0.8, Vif TR-FRET 2%, B2AR ag -2 and A1 inh 0.1.
COc1ccc([C@H]2CC(=O)C=C(c3cc(C(F)(F)F)cc(C(F)(F)F)c3)C2)cc1 was read as HNF4A DNA FP 2.8, Ecoli growth 0.76, LANA-H2A inh 2.1, UCH37 DUB inh -0.5, B2AR ag 4 and A1 inh -0.3.
`COc1ccc(Br)cc1CNC(=O)C1CCN(S(=O)(=O)N2CCCC2)CC1` gave HNF4A DNA FP 1.0, Ecoli growth 0.71, LANA-H2A inh 2.9, UCH37 DUB inh 0.5, Vif TR-FRET 22%, B2AR ag -8 and A1 inh 0.3.
For Cc1ncc(CN2CCCC(C(=O)Nc3ccc(-c4cscn4)cc3)C2)cn1 (stereo not drawn) the results were HNF4A DNA FP -1.0, LANA-H2A inh -1.1, B2AR ag -8 and A1 inh 0.5.
Cc1ccc(NC(=O)CCCNC(=O)c2ccc(Cl)cc2)c(O)c1 was read as HNF4A DNA FP 4.2, Ecoli growth 0.66, LANA-H2A inh -5.4, UCH37 DUB inh 2.6, B2AR ag 13 and A1 inh -0.1.
Cc1ccc(C(=O)NC2CC3CCC(C2)N3Cc2ccco2)cc1 (stereo not drawn) was read as HNF4A DNA FP -7.4, Ecoli growth 0.68, LANA-H2A inh 2.3, UCH37 DUB inh 0.2, Vif TR-FRET -10%, B2AR ag -1 and A1 inh 0.9.
For CCOc1ccc(CCNC(=O)c2cc3c(s2)CS(=O)(=O)C3)cc1OCC the results were HNF4A DNA FP 2.1, Ecoli growth 0.71, LANA-H2A inh 0.8, UCH37 DUB inh 6.1, Vif TR-FRET -16%, B2AR ag 6 and A1 inh 1.4.
Screening CS(=O)(=O)NCCCNc1ccc(Cl)cc1[N+](=O)[O-] returned HNF4A DNA FP 2.1, Ecoli growth 0.7, LANA-H2A inh -8.1, UCH37 DUB inh 8.5, Vif TR-FRET 12%, B2AR ag -10 and A1 inh -0.5.
COc1ccc(N(CC(=O)N/N=C(\C)CCc2ccccc2)S(=O)(=O)c2ccc(C)cc2)cc1 was read as HNF4A DNA FP -1.4, LANA-H2A inh -4.9, Vif TR-FRET 14%, B2AR ag -3 and A1 inh 0.1.
For Cc1cc(N2CCOCC2)ccc1/C=C1\NC(=O)N(Cc2ccccc2)C1=O the results were HNF4A DNA FP 0.1, LANA-H2A inh 0.1, UCH37 DUB inh 1.1, Vif TR-FRET -12%, B2AR ag 1 and A1 inh 0.2.
`Cc1nc2c(c(C)nn2-c2ccccc2)c(C)c1C` gave HNF4A DNA FP -1.7, Ecoli growth 0.7, LANA-H2A inh 3.8, UCH37 DUB inh -4.5, B2AR ag -3 and A1 inh 0.5.
Screening C=CCOc1cccc(C2C(C(=O)c3cc4ccccc4o3)=C(O)C(=O)N2c2cc(C)on2)c1 (stereo not drawn) returned HNF4A DNA FP -3.5, Ecoli growth 0.74, LANA-H2A inh 3.5, UCH37 DUB inh -24, B2AR ag 15 and A1 inh 1.2.

Already shown: five of the compounds above.
COC(=O)c1ccc(NC(=O)CCc2nnc3ccc(N4CCC5(CC4)OCCO5)nn23)cc1 was read as HNF4A DNA FP -3.0, Ecoli growth 0.68, LANA-H2A inh 0.7, UCH37 DUB inh 1.0, B2AR ag 1 and A1 inh -0.7.
COC(=O)c1cccc(N(C(=O)CNC(=O)c2ccco2)C(C(=O)NC2CCCC2)c2ccco2)c1 (stereo not drawn) was read as HNF4A DNA FP 0.3, Ecoli growth 0.74, LANA-H2A inh -7.8, UCH37 DUB inh 4.3, Vif TR-FRET 18%, B2AR ag 11 and A1 inh 0.7.
COc1ccc(C(=O)N(C)Cc2cnn(Cc3ccccc3)c2)cc1S(=O)(=O)N1CCOCC1 was read as HNF4A DNA FP -0.5, Ecoli growth 0.7, LANA-H2A inh 1.4, UCH37 DUB inh -2.1, Vif TR-FRET -8%, B2AR ag 19 and A1 inh -0.4.
Screening CC(C)N(Cc1nc2ccccc2[nH]1)C(C)C returned HNF4A DNA FP 0.1, Ecoli growth 0.77, LANA-H2A inh -0.6, UCH37 DUB inh 2.8, Vif TR-FRET inconclusive, B2AR ag -1 and A1 inh -0.6.
For Cc1cc(C)c(N2C(=O)CCCC2=O)c(Cl)c1 the results were HNF4A DNA FP -1.9, Ecoli growth 0.71, LANA-H2A inh -2.3, UCH37 DUB inh -1.2, Vif TR-FRET 3%, B2AR ag -8 and A1 inh -1.1.

Next section.
Screening COc1ccc2sc(N(CCN(C)C)C(=O)c3ccc4ccccc4c3)nc2c1 returned HNF4A DNA FP 2.1, Ecoli growth 0.69, LANA-H2A inh -7.3, UCH37 DUB inh 4.9, B2AR ag 2 and A1 inh -0.2.
Screening CN(CC(=O)Nc1ccccc1C(F)(F)F)C(=O)COc1ccccc1Cc1ccccc1 returned HNF4A DNA FP -1.1, LANA-H2A inh 4.4, B2AR ag 1 and A1 inh 0.5.
For CCOC(=O)c1sc(=NC(=O)c2cccc(C)c2)n(C)c1C the results were HNF4A DNA FP 3.8, Ecoli growth 0.71, LANA-H2A inh -3.1, UCH37 DUB inh 3.8, Vif TR-FRET -110%, B2AR ag 1 and A1 inh -3.6.
`CN1/C(=C\C(=O)c2cncc(Br)c2)C(C)(C)c2ccccc21` gave HNF4A DNA FP 6.1, Ecoli growth 0.69, LANA-H2A inh 1.5, UCH37 DUB inh -9.9, B2AR ag -21 and A1 inh 0.4.
CCOc1ccc2ccccc2c1CNc1nnnn1CC was read as HNF4A DNA FP 2.2, Ecoli growth 0.7, LANA-H2A inh -7.4, UCH37 DUB inh 2.7, Vif TR-FRET -8%, B2AR ag 6 and A1 inh 0.4.
CC(C)(C)n1nnnc1C(c1ccncc1)N1CCN(c2ccc(O)cc2)CC1 (stereo not drawn) was read as HNF4A DNA FP 1.3, Ecoli growth 0.68, LANA-H2A inh 0.8, UCH37 DUB inh 3.9, Vif TR-FRET inconclusive, B2AR ag -2 and A1 inh -0.3.
`CCN(CC(=O)Nc1cc(Cl)ccc1C)C(=O)CCOc1ccccc1C` gave HNF4A DNA FP 3.6, Ecoli growth 0.68, LANA-H2A inh 2.2, UCH37 DUB inh 0.7, B2AR ag -3 and A1 inh 2.2.
CCOC(=O)c1nn(-c2ccccc2)c(=O)c2c(N)scc12 was read as HNF4A DNA FP -0.6, Ecoli growth 0.73, LANA-H2A inh -3.0, UCH37 DUB inh 6.4, Vif TR-FRET 13%, B2AR ag -1 and A1 inh 0.6.
Screening CCN(CC)S(=O)(=O)c1ccc(N2CCOCC2)c(NC(=O)COc2ccc(OC)cc2)c1 returned HNF4A DNA FP -0.5, Ecoli growth 0.67, LANA-H2A inh active, UCH37 DUB inh 2.7, Vif TR-FRET -11%, B2AR ag 3 and A1 inh -0.9.
Cc1ccc(Cl)cc1N(CC(=O)NC1CCCCC1)S(C)(=O)=O was read as HNF4A DNA FP 0.5, Ecoli growth 0.7, LANA-H2A inh -1.3, UCH37 DUB inh 1.8, Vif TR-FRET -5%, B2AR ag 11 and A1 inh 0.1.
Cc1ccc(NC(=O)CCC(=O)NNC(=O)COc2ccc([N+](=O)[O-])cc2)cc1C was read as HNF4A DNA FP -2.0, Ecoli growth 0.67, LANA-H2A inh 2.0, UCH37 DUB inh 1.2, Vif TR-FRET 5%, B2AR ag 5 and A1 inh -0.3.
`COc1ccc(CCC(=O)Nc2ccc(C(=O)c3ccncc3)cc2)cc1` gave HNF4A DNA FP -2.9, Ecoli growth 0.73, LANA-H2A inh -2.2, UCH37 DUB inh 5.9, B2AR ag -4 and A1 inh 1.0.
For CN1CCCN(C(=O)CC(c2ccccc2)c2ccccc2)CC1 the results were HNF4A DNA FP 3.1, Ecoli growth 0.69, LANA-H2A inh -7.9, UCH37 DUB inh 4.1, Vif TR-FRET -4%, B2AR ag 3 and A1 inh 0.5.
For CN(C)c1ccc(/C=N\S(=O)(=O)c2ccccc2)cc1 the results were HNF4A DNA FP 1.6, LANA-H2A inh 4.3, B2AR ag 5 and A1 inh 0.6.
`Cc1ccc(CN2CCC(n3nccc3NC(=O)c3ccc4c(c3)OCO4)CC2)o1` gave HNF4A DNA FP 0.3, Ecoli growth 0.64, LANA-H2A inh 3.6, UCH37 DUB inh 1.7, Vif TR-FRET 1%, B2AR ag 0 and A1 inh 0.3.
`COCCCN(C(=O)C(C)Oc1ccc(Br)cc1)c1c(N)n(Cc2ccccc2)c(=O)[nH]c1=O` (stereo not drawn) gave HNF4A DNA FP -2.5, LANA-H2A inh 7.5, B2AR ag 7 and A1 inh -0.1.
CCOC(=O)Cc1[nH]nc2c1C(c1ccoc1)C(C#N)=C(N)O2 (stereo not drawn) was read as HNF4A DNA FP -3.5, Ecoli growth 0.69, LANA-H2A inh 12, UCH37 DUB inh 6.1, Vif TR-FRET 17%, B2AR ag 11 and A1 inh 2.2.
`CC(C)CNC(=O)NC1(C(F)(F)F)Oc2ccccc2O1` gave HNF4A DNA FP 2.0, Ecoli growth 0.72, LANA-H2A inh -7.4, UCH37 DUB inh 0.0, Vif TR-FRET 2%, B2AR ag -10 and A1 inh -0.1.
`CC(C)CC(NC(N)=O)C(=O)NCc1ccc(Cl)cc1` (stereo not drawn) gave HNF4A DNA FP -0.2, Ecoli growth 0.68, LANA-H2A inh 3.7, UCH37 DUB inh -4.1, Vif TR-FRET -10%, B2AR ag 8 and A1 inh -0.7.
